AF4-AF9 inh = inhibitors of AF4 peptide binding to AF9, primary screen, biochemical, AlphaScreen, biotin-AF4 peptide, FLAG-AF9, single point; inhibition, % at 10 µM; 350,000 tested, 0.47% active; Protein AF-9 (Homo sapiens), P42568; AID 651704, 2012;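 active = every replicate reaching a set inhibition limit, whatever the replicate mean, cut at about 25% in these data; inconclusive = mean inhibition reaches that limit but some replicates miss it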;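 note: 0% = plate neutral control median and 100% = total signal loss; the record names both 10 and 1 µM as test concentration; the first replicate is given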
Target sequence (P42568 whole entry, looked up): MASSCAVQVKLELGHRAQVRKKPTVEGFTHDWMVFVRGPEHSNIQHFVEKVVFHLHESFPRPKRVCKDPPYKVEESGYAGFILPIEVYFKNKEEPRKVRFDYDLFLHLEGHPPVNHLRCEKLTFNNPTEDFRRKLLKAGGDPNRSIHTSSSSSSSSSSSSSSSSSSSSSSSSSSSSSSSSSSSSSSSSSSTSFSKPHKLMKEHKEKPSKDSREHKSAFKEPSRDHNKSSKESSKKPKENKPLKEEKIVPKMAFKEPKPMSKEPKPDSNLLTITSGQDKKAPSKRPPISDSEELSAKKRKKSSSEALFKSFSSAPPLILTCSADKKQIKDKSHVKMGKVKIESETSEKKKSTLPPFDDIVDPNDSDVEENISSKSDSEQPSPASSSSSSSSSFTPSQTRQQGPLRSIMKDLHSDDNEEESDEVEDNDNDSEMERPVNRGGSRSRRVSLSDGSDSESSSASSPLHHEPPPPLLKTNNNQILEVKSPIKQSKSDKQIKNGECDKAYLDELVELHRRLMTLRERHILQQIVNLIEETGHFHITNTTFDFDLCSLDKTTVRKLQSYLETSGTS
Calb FLC = C. albicans growth inhibition with fluconazole, primary screen, CaCi-2 strain, Alamar Blue fluorescence. 300,000 tested, 0.57% active. growth inhibition, % (test concentration not listed). C. albicans CaCi-2 (fluconazole-resistant clinical isolate) + fluconazole, 48 h. AID 1979, 2009;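 active = most replicates above 75%; inconclusive = exactly half above 75%; inactive = most below 75%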;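 note: all wells also contain fluconazole at 8 µg/ml as a sub-toxic cotreatment; 0% = median of DMSO wells and 100% = median of geldanamycin control wells; wells of about 8 µL received 7.5 nL stock; the first replicate is given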
A1 inh = caspase 3/7 activation in MEF A1-2A-BIM cells, primary screen, A1 inhibitor project, cell-based, luminescence, HTS; caspase activation, % (concentration not given with the values); Caspase-Glo 3/7 luminescence, 3 h; percent of clofoctol response, vehicle zero; 330,000 tested, 0.066% active;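 active = over half of replicate activation scores above 10%, or exactly half above 10 with the replicate mean above 10; inconclusive = replicate mean below 10 yet half the replicates above 10; inactive = over half of replicates below 10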;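 note: wells of about 30 µL received 50 nL stock; many hits fall short of the cut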
T cruzi repl = inhibitors of intracellular T. cruzi growth, primary screen, luminescence, NIH3T3 host cells | inhibition, % (test concentration not listed) | T. cruzi beta-gal in NIH3T3, 90 h | AID 1885, 2009 | 300,000 tested, 1.4% active;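 active = mean inhibition across valid replicates above about 55%, limit read from the data; inconclusive = mean below that limit but half or more replicates reach it; inactive = mean below it, under half of replicates reach it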;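 note: signal also drops with host cell toxicity which is not excluded here; 0% = plate median of DMSO wells and 100% = zero luminescence signal; higher percent means less beta-gal luminescence so fewer parasites; stock transfer was 50 nL into about 50 µL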
Vif TR-FRET = inhibitors of Vif binding to APOBEC3G peptide, primary screen, biochemical, TR-FRET, GST-Vif 1-94, biotin-A3G peptide, dose response retest (AID 1117319); Virion infectivity factor (Human immunodeficiency virus type 1 group M subtype B (isolate …; TR-FRET GST-Vif / biotin-A3G peptide binding; higher % means a stronger effect; test concentration not given here; strong numbers were not always called active; inhibition, %; hits with a dose series show IC50 in µM; 260,000 tested, 0.57% active;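 active = above the screen mean plus three standard deviations and confirmed in dose response; inconclusive = results disagree or hit not tested in dose response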;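 note: Vif residues 1-94 fused to GST binding biotinylated APOBEC3G peptide 110-148; 0% = full assay without inhibitor and 100% = GST in place of GST-Vif; retest series ran down from 100 µM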
rRNA inh HTS = reduced GFP signal of wild-type E. coli, primary screen, bacterial rRNA inhibitor project, GFP/RFP fluorescence, OD600, single point | E. coli WT GFP vs humanized-ribosome RFP mutants, 24 h; hits give low values; DMSO median 0, no signal -100 | 350,000 tested, 1.6% active | AID 720706, 2013 | GFP signal change (wild-type ribosome), % (no concentration beside the values);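 active = significant combined selectivity score with lowered wild-type GFP, culture density cut under 30%, mutant RFP and density less affected; inactive = any of these conditions unmet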; note: one replicate is shown; some compounds called inactive have numbers as strong as hits
Beta apoptosis = inhibitors of cytokine-induced beta cell apoptosis, primary screen, luminescence | INS-1E cytokine-induced death, ATP luminescence, 48 h; percent of positive-control rescue, neutral wells zero | protection from apoptosis, % (test concentration not listed) | 300,000 tested, 0.8% active | AID 435005, 2010;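 active = all replicates at 75% or more, or half of them and the mean; inconclusive = half reach 75% but not the mean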;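 note: 0% = cytokine-treated negative control wells and 100% = positive control rescue; higher means more ATP so stronger rescue from cytokine killing; wells of about 40 µL received 100 nL stock; the first replicate is given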
RanGTP-Impb inh = inhibitors of RanGTP-importin-beta interaction, primary screen, biochemical, FRET, CFP-Ran, YFP-importin-beta, homogeneous. Ran GTPase (GTP-bound) - importin-beta complex. cell-free CFP-Ran/YFP-importin-beta FRET ratio. inhibition, % (no concentration beside the values). 300,000 tested, 1.1% active. AID 2216, 2009;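 active = most replicates above 15%; inconclusive = exactly half above 15%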;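 note: 0% = DMSO wells and 100% = Ran loaded with GDP instead of GTP; wells of about 40 µL received 100 nL stock; the first replicate is given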
rRNA inh HTS OD600 = second read-out of rRNA inh HTS, no call of its own (marks repeat the call); OD600 change, %; measured here: OD600 growth;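 optical density of the mix in the first replicate; 0 = DMSO median and -100 = no signal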
rRNA inh HTS RFP = further read-out of rRNA inh HTS, marked with its call; RFP signal change, %; measured here: RFP humanized mutant strains;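 first replicate; 0 = DMSO median and -100 = no signal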
Numbers without * were called inactive; ? = inconclusive; . = not tested or not shown; & = joins results of further samples.

SMILES | AF4-AF9 inh | Calb FLC | A1 inh | T cruzi repl | Vif TR-FRET | rRNA inh HTS | rRNA inh HTS OD600 | rRNA inh HTS RFP | Beta apoptosis | RanGTP-Impb inh
CCCS(=O)(=O)c1ccc(COC(=O)c2ccc(NC(C)=O)cc2)cc1 | -4.7 | -15.7 | 1.3 | 8.4 | -0.7% | -20.6 | -18.3 | 16.4 | 0.3 | 2.2
COc1ccc(C)cc1NC(=O)CCCN1C(=O)NC(C)(C)C1=O | -1.1 | . | 0.1 | . | -8.4% | . | . | . | 3.0 | .
O=C(COC(=O)/C=C/c1cccc(C(F)(F)F)c1)NCc1ccccc1 | 2.4 | 5.3 | 0.7 | -19.1 | . | 15.6 | 2.5 | -0.9 | -5.8 | 2.0
O=C(Cc1ccccc1F)OCN1C(=O)c2ccccc2C1=O | -1.0 | 6.8 | -0.7 | 9.4 | . | 8.2 | 11.0 | 0.9 | -3.3 | 0.9
O=C(c1cc2ccccc2oc1=O)N1CCN(c2ccccn2)CC1 | . | 3.6 | 0.0 | 5.3 | ? | . | . | . | -9.4 | 3.0
O=C(NCc1ccc2c(c1)OCO2)c1ccc(CS(=O)Cc2cccc(Cl)c2)o1 (stereo not given) | -9.3 | -2.1 | -0.9 | -4.8 | . | 1.9 | -29.8 | 3.5 | -5.4 | 1.0
Cc1ccc(-c2cc(Cc3ccccn3)c(=O)[nH]n2)cc1 | 9.6 | -3.1 | 0.3 | -5.0 | -2.8% | 3.7 | 7.9 | 4.1 | -3.7 | -38.8
C=CCn1c(=S)[nH]c2nc3c(cc2c1=O)CCCC3 | 6.6 | -32.1 | -2.5 | 0.6 | 7.8% | 7.4 | 11.6 | 3.5 | 2.4 | 0.3
CCCc1cc(=O)oc2c3c(cc(OCC(=O)N[C@@H](C)C(=O)O)c12)OC(C)(C)CC3 | -0.3 | -0.3 | -0.4 | 1.0 | 2.9% | -6.4 | -8.8 | 0.5 | -2.0 | 1.9
CN1CCN(C(=O)CCN2C(=O)/C(=C\c3ccccc3F)SC2=S)CC1 | 1.6 | 1.0 | 0.9 | 1.0 | . | -8.2 | -0.7 | 10.0 | -63.8 | -1.2
Clc1ccc2c(c1)-c1[nH]ncc1CS2 | 3.2 | 8.9 | 0.2 | -3.0 | -6.5% | 9.6 | -2.2 | 3.6 | -3.5 | 1.0
O=C(CCc1ccc(S(=O)(=O)NCCc2ccccc2)cc1)N1CCN(Cc2ccc3c(c2)OCO3)CC1 | . | -8.9 | 0.6 | 40.0 | -5.5% | . | . | . | . | 2.7
CC(=O)NN1C(=O)c2ccccc2NC1c1ccco1 (stereo not given) | -2.7 | -11.6 | 0.5 | 1.8 | 27.7% | 21.1 | 13.2 | 3.7 | 1.0 | -0.1
Cc1ccc(/C=C/C(=O)O)cc1S(=O)(=O)N(CCO)CCO | . | -1.5 | -0.1 | -6.6 | 4.4% | . | . | . | -0.6 | 4.5
COC(=O)c1sc2ccccc2c1-n1cccc1C(=O)C(=O)Nc1ccccc1 | . | -10.4 | -0.9 | -0.1 | 14.7% | . | . | . | 3.8 | -1.8
Cc1cc(NC(=O)c2ccccc2C)no1 | -6.4 | -5.8 | -0.2 | -8.8 | 3.1% | 3.2 | 5.0 | 0.0 | 0.3 | 5.5
COc1ccc(S(=O)(=O)Nc2ccc(-c3ccc4nncn4n3)cc2)c(OC)c1 | -0.3 | 3.6 | 0.2 | -0.5 | -4.2% | -3.5 | -0.3 | 0.1 | -10.5 | 3.1
COC(=O)C(CC(=O)c1ccc(C)cc1)n1cccn1 (stereo not given) | -1.4 | -3.4 | -0.9 | -9.0 | -1.9% | 12.5 | 10.5 | 1.7 | -2.1 | 2.2
COc1ccc(/C(O)=C(\C#N)c2nc3ccccc3n2C)cc1OC | . | -4.3 | 0.0 | 12.9 | -7.1% | . | . | . | 0.8 | ?
Cc1c(C(C)(C(=O)O)c2c(C)n(C)c3ccccc23)c2ccccc2n1C | 7.0 | 7.6 | -1.3 | 9.7 | 2.6% | -4.1 | 0.7 | 2.2 | -0.3 | -5.6
O=C(NCCSc1c[nH]c2ccccc12)c1ccc(Br)o1 | -4.2 | 1.7 | 0.6 | -15.7 | 5.0% | 2.7 | -44.2 | -12.1 | -0.1 | ?
CCOc1ccc(CNC2CCCCCCC2)cc1OC | 0.0 | -4.1 | 12.3* | 13.8 | . | 7.9 | -0.9 | -0.9 | -5.2 | -0.6
CCN(CC(=O)Nc1c(F)cccc1F)C(=O)c1ccc(S(=O)(=O)N2CCCCC2)cc1 | 1.1 | 4.6 | 0.0 | 1.1 | 4.0% | 3.9 | 16.0 | -0.8 | 6.8 | .
NC(=O)c1ccc(NC(=O)COC(=O)C2CC3C=CC2C3)cc1 (stereo not given) | 6.4 | . | -1.4 | . | -3.4% | 1.9 | 2.4 | -0.1 | -7.3 | .
CCOCCCNC(=O)C(NC(=O)c1ccc(NC(C)=O)cc1)c1ccc(C)cc1 (stereo not given) | -18.7 | -14.4 | -1.7 | -9.7 | -5.3% | -1.9 | -4.9 | -2.3 | -6.1 | 0.0
COc1ccc(CNC(=O)C(C)Cc2ccccc2)cc1O (stereo not given) | . | 9.1 | 0.6 | 3.2 | 14.2% | 0.0 | 4.7 | -1.5 | 2.2 | 2.5
CN(CC(=O)NNC(=O)CCNS(=O)(=O)c1ccccc1)S(=O)(=O)c1ccc(Cl)cc1 | -1.1 | 6.8 | 0.4 | -7.9 | 0.9% | 5.8 | 3.7 | 0.3 | -3.2 | 1.3
O=C(C1CCCN(CCCc2ccccc2)C1)N1CCCCCC1 (stereo not given) | 1.0 | -21.8 | -0.4 | 40.2 | -8.0% | 11.0 | 5.3 | -2.5 | 5.6 | 3.4
CC1(C)C=Cc2c(c3c(c4c(=O)c(-c5ccc(O)cc5)coc24)OC(C)(C)CC3)O1 | 3.4 | 7.9 | 0.7 | 52.7 | ? | 3.9 | -4.6 | -9.0 | 4.6 | 1.7
COC(=O)[C@H](CCSC)NC(=O)Cn1cnc2c(SC)nc(N)nc21 | -3.2 | . | 0.0 | . | -9.8% | 16.9 | 16.4 | 1.0 | -2.2 | .
Cc1ccc(S(=O)(=O)N2CCC(C(=O)N3CCC(C(=O)NCC4CCCO4)CC3)CC2)cc1 (stereo not given) | -2.4 | -3.0 | 0.7 | 0.0 | -2.4%&-0.5% | 4.3 | -1.3 | -5.4 | 2.9 | -1.9
CCc1ccc(CCC(=O)Nc2nc(CC(C)=O)ns2)o1 | . | -16.4 | 0.0 | -10.2 | 18.4% | . | . | . | -1.7 | -0.8
Cc1ccc(-c2nnc(COC(=O)c3cc(=O)[nH]c4ccccc34)o2)cc1 | -1.5 | -13.3 | 0.8 | -18.8 | 0.4% | 10.6 | 10.8 | 4.6 | -0.7 | 4.6
CCc1cc(C(=O)N(C)CC(=O)Nc2c(Cl)cccc2Cl)sc1C | 1.5 | . | -0.3 | . | 0.0% | -0.5 | -12.2 | 1.8 | -9.3 | .
Cc1ccc(-c2csc3nc4ccc(C(=O)NCCO)cc4c(=O)n23)cc1 | . | 0.2 | -1.1 | -11.4 | -4.1% | . | . | . | -1.8 | -2.3
CC(=O)Nc1cccc(NC(=O)CCn2c(=O)sc3ccccc32)c1 | . | 15.8 | 0.3 | 4.2 | 2.2% | . | . | . | 1.6 | 3.9
CCc1cccc(C)c1N(C(=O)Cn1c(COC)nc2ccccc21)C(C)COC (stereo not given) | . | 18.2 | 0.8 | 8.2 | -0.1% | . | . | . | 0.6 | 0.2
CC(=O)Oc1ccc(C2=NN(c3ccccc3)C(c3ccccc3)C2)cc1 (stereo not given) | -8.8 | -2.7 | -1.9 | 31.9 | . | -0.2 | -15.2 | -1.4 | 0.7 | -2.1
Cc1ccc2c(c1)c1nnc(SCC(=O)N3CCN(c4ccc(F)cc4)CC3)nc1n2CC(=O)O | . | 6.4 | 0.3 | 7.6 | . | . | . | . | 2.3 | 0.3
CN(CC(=O)Nc1ccc(F)cc1)C(=O)CSc1nc2ncc(Cl)cc2[nH]1 | -2.4 | -2.6 | -0.2 | -6.2 | -0.9% | 11.7 | -0.7 | -3.7 | 0.3 | 6.9
O=C(Nc1ccc(N2C(=O)C3C4C=CC(C4)C3C2=O)cc1)Nc1nnc(C(F)(F)F)s1 (stereo not given) | 1.4 | -4.7 | 0.3 | 2.3 | 12.0% | -7.4 | 0.4 | -3.5 | -2.4 | -3.8
COc1ccccc1-n1cnnc1SCC(=O)Nc1ccccc1 | -1.5 | 1.0 | 0.5 | -8.6 | . | 0.4 | 1.4 | 1.6 | -3.0 | 2.3
NCCCC[C@H](NC(=O)C1CCNCC1)c1nnc([C@@H](N)Cc2ccc(O)cc2)o1 | 15.2 | -10.9 | 0.8 | -7.1 | 16.0% | 5.9 | 4.6 | -3.1 | -6.5 | 0.6
COc1cccc(C(=O)Cn2c(=N)n(C)c3ccccc32)c1 | . | 14.4 | 0.3 | 12.9 | -2.7% | . | . | . | 11.7 | 0.0
CC1CCCC(C)N1C(=O)COC(=O)c1ccc(Br)c(S(=O)(=O)N2CCOCC2)c1 (stereo not given) | 3.7 | . | 0.3 | . | 1.9% | -5.2 | -7.1 | 6.5 | -2.7 | .
Cc1ccc(C(=O)NC(=S)N(C)Cc2ccccc2)cc1 | 1.7 | -6.9 | 0.5 | -6.5 | . | . | . | . | 8.1 | 0.6
Cc1csc(NC(=O)CSc2[nH]c(=O)ncc2C)n1 | -0.9 | 1.6 | 1.1 | 0.4 | 1.2% | 15.7 | 1.1 | 1.8 | -1.4 | 1.4
O=C(Cc1ccccc1)NNC(=O)c1cnccn1 | -10.5 | -4.0 | 0.5 | -12.5 | . | 6.0 | -0.5 | 4.4 | -0.5 | -3.1

Screening data (PubChem BioAssay)

Only part of the results is shown; the hit share may differ from the screen's.
